# Menin-MLL FL inh – inhibitors of human menin-MLL interaction, wild-type MLL peptide; Fluorescence polarization, fluorescein-MLL peptide displacement from menin; FP activity change, % at 61.4 µM; 290,000 tested, under 10 active; inconclusive = falling polarisation curve, or a change in total fluorescence; inactive = total fluorescence flat and polarisation flat or rising; no compound was filed as active; the % refers to the polarisation; negative = inhibition;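 further: % of control where 0% means no effect; inhibitors lower the polarisation; unlabelled MLL peptide was the positive control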
# ClpP mod – qHTS Assay for Activators of ClpP | AID 651965, 2013 | actives 1.9% (n = 340,000) | purified B. subtilis ClpP, FRET peptide cleavage, 20 min | Potency, µM (series often up to 57.5 µM), for the others: at the highest dose activity change, negative = active | ATP-dependent Clp protease proteolytic subunit (Bacillus subtilis (strain 168)), P80244; active = well fitted falling curve with a large enough effect; inconclusive = small, poorly fitted or top-dose-only effect; inactive = no such curve, though single readings can be large or run the other way; further: potency means the concentration at half of the fitted maximal effect; the source files actives as falling curves though it sought activators and does not explain the sign; nearly all actives have a fitted effect of over 65% in size; many hits overshoot -100%
# Target sequence (P80244 whole entry, looked up): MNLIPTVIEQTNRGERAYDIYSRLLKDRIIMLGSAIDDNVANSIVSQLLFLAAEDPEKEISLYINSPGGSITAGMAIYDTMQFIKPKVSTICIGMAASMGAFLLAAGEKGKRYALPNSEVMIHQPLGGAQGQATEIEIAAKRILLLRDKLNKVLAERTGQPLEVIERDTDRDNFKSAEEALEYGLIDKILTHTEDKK
#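 ClpP 10 microg/mL final, pH 8 Tris/KCl buffer with BSA, glycerol, Tween-20; compound pinned in; FRET-FV substrate; RT 20 min; Ex320/Em430; ΔFRET vs ADEP 5.8 microM, DMSO, no enzyme.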
# gsp ag – agonists of gsp mutant (McCune-Albright syndrome). gsp mutant cells, cAMP HTRF, 30 min; control for the full effect not named in the record. Potency, µM (titrated, usually from 76.9 µM), for the others: at the top dose activation (cAMP increase), hits mostly activators. actives 0.13% (n = 340,000); active = well fitted activation curve with a large enough effect; inconclusive = small, poorly fitted or top-dose-only effect, or another doubt; inactive = no such curve, though single readings can be large or run the other way; cell line not stated here;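 further: phosphodiesterase inhibitor Ro 20-1724 added with compounds to block cAMP breakdown; potency means the concentration at half of the fitted maximal effect; nearly all actives have a fitted effect of over 60% in size; about a fifth of the inactives were tested at one dose only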
#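 Cells in DMEM/10% FBS with G418 were pretreated with compounds in DMSO plus […] (300 uM stock) for 30 min at 37C. cAMP was measured by HTRF (cAMP-d2 plus anti-cAMP antibody-K) after 30 min at room temperature.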
# gsp antag – antagonizes gsp, the McCune-Albright syndrome mutation. gsp-mutant cells, cAMP HTRF, 30 min; control for the full effect not named in the record. Potency, µM (series often up to 76.9 µM), for the others: at the top dose activity change, negative = inhibition, hits mostly inhibitors. actives 0.4% (n = 340,000); active = falling curve of any shape with a large fitted effect; inconclusive = falling curve, mostly with a smaller effect; inactive = flat or rising curve; cell line not stated here;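 further: intracellular cAMP measured with PDE inhibitor Ro 20-1724 present during compound exposure; potency means the concentration at half of the fitted maximal effect; on the % scale 0 is the no-effect control and ±100 the full control effect; nearly all actives have a fitted effect of over 65% in size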
#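 HTRF cAMP measurement after 30 min RT detection following 30 min, 37C compound treatment alongside […] (added as 300 uM solution) in G418-selected cells seeded at 2000/well and grown 16–24 h.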
# Sfp inh – inhibitors of Bacillus subtilis Sfp phosphopantetheinyl transferase | Potency, µM, for the others: max response, negative = inhibition, actives largely listed as inhibitors | Q9F4F7 | Biochemical Sfp PPTase activity, qHTS | actives 3.5% (n = 310,000); active means well fitted inhibition curve with a large enough effect; inconclusive means small, poorly fitted or top-dose-only effect, or another doubt; inactive means no such curve, though single readings can be large or run the other way;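 further: the enzyme is Sfp with the accession as filed and its product quenches rhodamine fluorescence; potency means the concentration at half of the fitted maximal effect; 0% = enzyme reaction without inhibitor and -100% = no enzyme wells; top concentration of the series not given in the record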
#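 Sfp 15 nM + cpd, 15 min RT; start w/ rhodamine-CoA 5 uM, BHQ-2-YbbR 12.5 uM (final); 50 mM Hepes pH 7.6, 10 mM MgCl2, 0.01% NP-40, 0.01% BSA; read 525/598 nm at 0 and 30 min.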
# CtBP-E1A inh – CtBP/E1A binding inhibition; AlphaScreen GST-E1A/His-CtBP binding, 1536-well; hits give low values; control for the full effect not named in the record; actives 0.49% (n = 340,000); AID 651724; activity change, % (no concentration beside the values); in the data active means activity change below about -65%; inconclusive means about -30% to -65%; inactive means above about -30%; further: on the % scale 0 is the no-effect control and ±100 the full control effect; compound concentration not given in the record
#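 Homogeneous bead-based format: GST-tagged E1A captured on glutathione donor beads, His-tagged CtBP on nickel acceptor beads; compounds precede bead addition by 2 h at 37 °C.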
# TRPV1 PAM – enhances activation of the human vanilloid receptor TRPV1. actives 0.02% (n = 320,000). potentiation, % at 8.33 µM. Q8NER1. TRPV1-expressing cells, Fluo-8 calcium influx, capsaicin EC20 potentiation; host cell line not named in the record; control for the full effect not named in the record. AID 540277; active means potentiation above 80%; inconclusive means 30% to 80%; inactive means below 30%; further: 0% is about no effect
# Target sequence (Q8NER1 whole entry, looked up): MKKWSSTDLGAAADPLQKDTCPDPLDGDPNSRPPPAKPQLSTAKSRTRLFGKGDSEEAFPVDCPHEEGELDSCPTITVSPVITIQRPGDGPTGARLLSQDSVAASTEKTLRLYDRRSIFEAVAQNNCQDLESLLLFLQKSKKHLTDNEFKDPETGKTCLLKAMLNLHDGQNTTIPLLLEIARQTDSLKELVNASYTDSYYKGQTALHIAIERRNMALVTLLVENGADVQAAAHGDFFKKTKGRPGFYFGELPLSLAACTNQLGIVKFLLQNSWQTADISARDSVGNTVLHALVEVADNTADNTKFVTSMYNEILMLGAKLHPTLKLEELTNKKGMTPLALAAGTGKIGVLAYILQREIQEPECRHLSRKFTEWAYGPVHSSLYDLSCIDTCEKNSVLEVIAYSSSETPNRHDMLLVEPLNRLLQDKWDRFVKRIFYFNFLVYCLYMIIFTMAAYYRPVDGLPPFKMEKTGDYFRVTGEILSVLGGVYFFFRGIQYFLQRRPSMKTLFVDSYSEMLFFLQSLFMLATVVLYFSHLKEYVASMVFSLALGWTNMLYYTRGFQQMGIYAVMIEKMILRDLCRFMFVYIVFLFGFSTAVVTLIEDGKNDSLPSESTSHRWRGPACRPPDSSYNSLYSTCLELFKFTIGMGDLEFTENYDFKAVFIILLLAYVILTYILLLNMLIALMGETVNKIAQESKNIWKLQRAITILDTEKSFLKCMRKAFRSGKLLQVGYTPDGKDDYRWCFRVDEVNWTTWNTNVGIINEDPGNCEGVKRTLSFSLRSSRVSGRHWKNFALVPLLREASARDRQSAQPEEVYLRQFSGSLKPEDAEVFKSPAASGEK
#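 TRPV1-expressing cells were cultured overnight at 35.5C and loaded with Fluo-8 calcium dye for 40 to 90 min at room temperature. After a 10 s baseline, compound was added and calcium influx was read kinetically for 3 min (ex 480/em 520 nm).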
# * = called active by the depositor; ? = inconclusive; . = not tested or not shown; [ ] = another dose, or the depositor's remark. Random draw from the library; any-hit rate near 5.3%.
SMILES,Menin-MLL FL inh,ClpP mod,gsp ag,gsp antag,Sfp inh,CtBP-E1A inh,TRPV1 PAM
CC1=C(Sc2nc3ccccc3[nH]2)C(=O)NC(C)(C)C1,3.6,-1.4%,-1%,13%,21%,9,22
O=C(Cc1cccs1)Nc1ccccc1-c1nc2ccccc2[nH]1,3.7,.,-4%[15.4 µM],2%,10%,1,-11
Cc1ccc(NC(=O)CCC(=O)OCC(=O)c2ccc(-c3ccccc3)cc2)cc1,-1.7,0.2%,6%,4%,3%,14,9
COCCNC(=O)C(c1ccc(OC)cc1)N(CCOC)C(=O)CCC(=O)Nc1nccs1 (configuration not stated),1.0,.,-40%[inhibitor],1%,20%,-1,-5
CCCNC(=O)C(=O)N/N=C/c1ccc(OCc2ccccc2)cc1,-2.0,-2.8%,-51%[inhibitor],11%,8%,-18,-6
COc1ccccc1NC(=S)NCCc1c[nH]c2ccccc12,5.2,-1.7%,?,-16%,-2%,-24,-16
O=C(Nc1ccc(Cc2ccncc2)cc1)c1cccc([N+](=O)[O-])c1,7.6,-0.4%,?,?,?,.,-34
CCCn1c2ccccc2c2nnc(SCC(=O)Nc3nnc(CC(=O)OCC)s3)nc21,-1.8,0.5%,?,16%,22%,-12,4
Cc1ccc(S(=O)(=O)CC(=O)c2ccc(C(C)(C)C)cc2)cc1,-0.1,28µM*,-28%,-1%,11%,-2,-9
Cc1cccc(COc2ccccc2C(=O)N(C)CC(=O)Nc2cccc(F)c2)c1,.,0.8%,-6%,-9%,.,3,-8
CCOC(=O)c1c(C)[nH]c(C(=O)COC(=O)c2cnccn2)c1C,.,0.8%,30%,4%,.,5,1
COc1ccc(F)cc1Cn1nc(C(=O)O)c2ccccc2c1=O,-1.4,.,3%[15.4 µM],10%,3%,0,6
O=C(NC1CCCCC1)C(c1ccncc1)N(C(=O)c1csnn1)c1ccccc1F (configuration not stated),0.2,.,11%[15.4 µM],2%,30%,-10,6
Cc1ccc(NC(=O)COc2ccccc2)c(NC(=O)c2ccco2)c1,-2.6,0.2%,6%,-10%,9%,1,-10
CCOC(=O)C1=C(CN2CCC(C)CC2)NC(=O)NC1c1ccc(Cl)cc1 (configuration not stated),-0.7,-1.0%,31%,4%,19%,10,-22
COc1ccc(C(=O)N2CCCC(Nc3ccc(F)cc3)C2)cc1F (configuration not stated),-1.5,-2.0%,?,6%,1%,2,-17
COC(=O)c1sc(S(=O)(=O)NC(C)C(=O)O)c(C(=O)OC)c1C (configuration not stated),-0.1,.,-3%[15.4 µM],.,-1%,-9,-36
COC(=O)c1ccc(-c2n[nH]c(=O)c3ccccc23)cc1,0.5,-1.8%,17%,2%,-6%,-2,-1
O=C(Nc1nnc(Cc2ccc(Cl)cc2)s1)c1cccs1,2.9,-3.8%,-15%,9%,10%,1,20
Cc1cccc(C)c1OCC(=O)OCC(=O)Nc1ccc(Cl)cn1,.,-1.4%,4%,-10%,.,-2,3
O=C(CN(c1ccc2c(c1)OCCO2)S(=O)(=O)c1ccccc1)NCC1CCCO1 (configuration not stated),-0.1,-0.6%,0%,-2%,4%,-4,-3
Cc1cc(SCC(=O)N(C)CC(=O)Nc2ccc(F)cc2)nc2ccccc12,9.8,-4.4%,-5%,-17%,2%,-23,-16
CCN(CC)S(=O)(=O)c1ccc(N2CCOCC2)c(NS(=O)(=O)c2ccc(Cl)s2)c1,.,-0.7%,-89%[inhibitor],.,.,-5,.
CN(CC1CCCN(CCc2ccccc2F)C1)C(=O)c1ccoc1 (configuration not stated),3.7,-4.3%,?,7%,19%,0,13
Cc1ccc2c(CSc3nncn3C)cc(=O)oc2c1C,-7.0,.,24%[15.4 µM],.,11%,0,4
O=C(Cn1nc(-c2cccc(Cl)c2)ccc1=O)Nc1cccnc1,0.7,-6.4%,-25%,8%,-12%,-8,6
CCN(C(=O)/C=C/c1ccccc1)C1CCCCC1,-1.3,0.2%,0%[15.4 µM],-4%,9%,1,-12
CCOC(=O)Cc1csc(NC(=O)COc2ccc(C)c(C)c2)n1,-0.4,1.7%,-44%[inhibitor],-2%,-12%,4,-14
CCOC(=O)N1c2ccccc2Sc2ccccc21,0.2,0.1%,2%,-7%,5%,.,6
CCOc1ccc(NS(=O)(=O)c2ccc(NC(=O)c3cccnc3)c(OC)c2)cc1,-1.0,.,28%,-2%,-3%,0,-5

# Some of the entries so far, with two lines to a compound.
# Results follow in this order: Menin-MLL FL inh, ClpP mod, gsp ag, gsp antag, Sfp inh, CtBP-E1A inh, TRPV1 PAM
> Cc1cccc(C)c1OCC(=O)OCC(=O)Nc1ccc(Cl)cn1
→ ., -1.4%, 4%, -10%, ., -2, 3
> O=C(CN(c1ccc2c(c1)OCCO2)S(=O)(=O)c1ccccc1)NCC1CCCO1 (configuration not stated)
→ -0.1, -0.6%, 0%, -2%, 4%, -4, -3
> Cc1cc(SCC(=O)N(C)CC(=O)Nc2ccc(F)cc2)nc2ccccc12
→ 9.8, -4.4%, -5%, -17%, 2%, -23, -16
> CCN(CC)S(=O)(=O)c1ccc(N2CCOCC2)c(NS(=O)(=O)c2ccc(Cl)s2)c1
→ ., -0.7%, -89%[inhibitor], ., ., -5, .
> CN(CC1CCCN(CCc2ccccc2F)C1)C(=O)c1ccoc1 (configuration not stated)
→ 3.7, -4.3%, ?, 7%, 19%, 0, 13
> Cc1ccc2c(CSc3nncn3C)cc(=O)oc2c1C
→ -7.0, ., 24%[15.4 µM], ., 11%, 0, 4
> O=C(Cn1nc(-c2cccc(Cl)c2)ccc1=O)Nc1cccnc1
→ 0.7, -6.4%, -25%, 8%, -12%, -8, 6
> CCN(C(=O)/C=C/c1ccccc1)C1CCCCC1
→ -1.3, 0.2%, 0%[15.4 µM], -4%, 9%, 1, -12
> CCOC(=O)Cc1csc(NC(=O)COc2ccc(C)c(C)c2)n1
→ -0.4, 1.7%, -44%[inhibitor], -2%, -12%, 4, -14
> CCOC(=O)N1c2ccccc2Sc2ccccc21
→ 0.2, 0.1%, 2%, -7%, 5%, ., 6
> CCOc1ccc(NS(=O)(=O)c2ccc(NC(=O)c3cccnc3)c(OC)c2)cc1
→ -1.0, ., 28%, -2%, -3%, 0, -5

# Following part
SMILES,Menin-MLL FL inh,ClpP mod,gsp ag,gsp antag,Sfp inh,CtBP-E1A inh,TRPV1 PAM
O=C(O)c1cccc(S(=O)(=O)Nc2cc(Cl)ccc2Cl)c1,0.7,-1.5%,6%,11%,3%,6,-11
O=C(CCCN1C(=O)c2ccccc2C1=O)NCCN1C(=O)S/C(=C\c2cccs2)C1=O,-23,1.9%,-1%,-14%,-9%,-3,-12
COc1ccccc1NC(=O)COC(=O)/C=C/c1ccc(OC)c(OC)c1,.,?,-9%,-20%,.,3,.
COc1ccc2cc(C(=O)C3CCCN(Cc4ccccn4)C3)ccc2c1 (configuration not stated),-1.0,.,12%,-7%,16%,-4,-7
Cc1cccc(N2CCN(C3=NC(=O)/C(=C\c4cn[nH]c4-c4ccccc4)S3)CC2)c1,0.1,0.5%,0%,?,12%,3,-4
O=C(O)c1ccccc1C(=O)Nn1cnnc1,-0.2,-3.0%,24%,-4%,17%,4,-12
Cn1cnnc1SCC(=O)NN(c1ccccc1)c1ccccc1,3.8,.,-39%[inhibitor],-6%,2%,12,-2
Cc1ccc(N2CC(C(=O)Nc3ncc([N+](=O)[O-])s3)CC2=O)cc1 (configuration not stated),2.3,0.2%,-13%,-25%,-9%,15,-34
S=c1[nH]nc(COc2ccccc2)n1/N=C/c1ccc(Cl)cc1Cl,-0.9,-1.1%,-6%[15.4 µM],?,-1%,9,25
Cc1cc(NC(=O)CCCn2nc([N+](=O)[O-])c(Cl)c2C)no1,0.1,0.6%,4%,10%,10%,2,4
O=C(O)c1cccc(Oc2cccc(Cl)n2)c1,5.4,.,12%[15.4 µM],7%,6%,1,2
CCN(CC)CCCn1c(=S)[nH]c2cc(Cl)ccc2c1=O,-2.4,0.1%,6%,13%,1%,9,-31
Cc1ccc(CN(C)C2CCN(C)CC2)cc1,-0.1,2.9%,-9%[15.4 µM],12%,6%,3,12
N/C(=N\c1nc(CSc2ccc(Cl)cc2)cc(=O)[nH]1)Nc1ccccc1C(F)(F)F,-3.6,-2.9%,-15%,-9%,13%,-7,12
CCc1ccc(-c2csc3ncn(CC(=O)NCc4ccco4)c(=O)c23)cc1,2.2,.,-19%[15.4 µM],?,6%,-2,4
O=C(Nc1ccc(S(=O)(=O)Nc2nccc(C3Cc4ccccc4C(=O)O3)n2)cc1)c1ccccc1 (configuration not stated),1.1,-1.5%,27%,4%,16%,6,7
CCOC(=O)c1[nH]c2ccc(OC)cc2c1N=CN(C)C,-2.0,?,-9%,0%,-7%,4,-1
CN(C)S(=O)(=O)c1cccc(NC(=S)N/N=C/c2cccc(O)c2)c1,-2.7,0.8%,-11%,5%,18%,-10,5
COC(=O)CC1C(C(=O)OC)ON2OC(C(=O)OC)C(C(=O)OC)C12 (configuration not stated),?,0.3%,20%,-20%,18%,.,7
O=C(CCn1cnnn1)NC1CCCN(Cc2ccccc2F)C1 (configuration not stated),.,-3.6%,15%,6%,13%,0,1
O=C(NCc1ccco1)c1cccc(S(=O)(=O)N2CCN(Cc3ccccc3)CC2)c1,.,.,7%[15.4 µM],-4%,.,-1,-19
COCCn1c(SCC(=O)Nc2cc(C)nn2-c2ccccc2)nnc1-c1ccncc1,1.5,-1.5%,-6%[15.4 µM],-5%,1%,4,-14
Cc1cccc(OCCCCc2c(C)n[nH]c2C)c1,-11,-0.5%,11%,?,?,3,0
Cc1ccc(-c2csc3nc(SCC(=O)Nc4ccc(Cl)c(C(=O)O)c4)[nH]c(=O)c23)cc1,-1.1,-0.9%,-22%,6%,-14%,.,7

# Assay outcomes as filed in PubChem.
